Menin MLL FP FL = displaces fluorescein MLL peptide from human menin; Fluorescence polarization, fluorescein-MLL peptide displacement from menin; FP activity change, % at 61.4 µM; 290,000 tested, under 10 active; inconclusive = falling polarisation curve, or a change in total fluorescence; inactive = total fluorescence flat and polarisation flat or rising; no compound was filed as active; the % refers to the polarisation; negative = inhibition;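 further: % of control where 0% means no effect; inhibitors lower the polarisation; unlabelled MLL peptide was the positive control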
gsp antag = antagonizes gsp, the McCune-Albright syndrome mutation. gsp-mutant cells, cAMP HTRF, 30 min; control for the full effect not named in the record. Potency, µM (titrated, usually from 76.9 µM), for inactives: top-dose activity change, negative = inhibition, hits mostly inhibitors. actives 0.4% (n = 340,000). AID 624288; active = falling curve of any shape with a large fitted effect; inconclusive = falling curve, mostly with a smaller effect; inactive = flat or rising curve; cell line not stated here;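 further: intracellular cAMP measured with PDE inhibitor Ro 20-1724 present during compound exposure; potency means the concentration at half of the fitted maximal effect; on the % scale 0 is the no-effect control and ±100 the full control effect; nearly all actives have a fitted effect of over 65% in size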
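Cells, 2000/well, grown 16–24 h in DMEM 10% FBS with 0.5 mg/ml G418, then compounds plus […] (300 uM addition stock), 30 min at 37C. cAMP read by HTRF (cAMP-d2 and anti-cAMP antibody-K in lysis buffer) after 30 min RT.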
ClpP mod = qHTS Assay for Activators of ClpP. purified B. subtilis ClpP, FRET peptide cleavage, 20 min. actives 1.9% (n = 340,000). AID 651965, 2013. Potency, µM (top dose mostly 57.5 µM), without a hit: at the top dose activity change, negative = active; active = well fitted falling curve with a large enough effect; inconclusive = small, poorly fitted or top-dose-only effect; inactive = no such curve, though single readings can be large or run the other way; further: potency means the concentration at half of the fitted maximal effect; the source files actives as falling curves though it sought activators and does not explain the sign; nearly all actives have a fitted effect of over 65% in size; many hits overshoot -100%
Target sequence (P80244 whole entry, looked up): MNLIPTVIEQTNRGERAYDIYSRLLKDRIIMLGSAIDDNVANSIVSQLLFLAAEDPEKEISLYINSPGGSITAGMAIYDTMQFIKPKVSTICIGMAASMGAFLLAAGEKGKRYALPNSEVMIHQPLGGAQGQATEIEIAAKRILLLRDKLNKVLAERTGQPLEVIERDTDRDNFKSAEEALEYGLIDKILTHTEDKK
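FRET quenching reversal measured ClpP activation: 10 microg/mL B. subtilis ClpP at pH 8 with the FRET-FV decapeptide, read at 430 nm after 320 nm excitation. The 20-min minus 0-min signal was scaled between DMSO/no-enzyme wells and ADEP (5.8 microM final).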
TRPV1 potentiator = potentiators of human vanilloid receptor 1 (TRPV1). TRPV1-expressing cells, Fluo-8 calcium influx, capsaicin EC20 potentiation; host cell line not named in the record; control for the full effect not named in the record. potentiation, % at 8.33 µM. actives 0.02% (n = 320,000). AID 540277; active means potentiation above 80%; inconclusive means 30% to 80%; inactive means below 30%; further: 0% is about no effect
Target sequence (Q8NER1 whole entry, looked up): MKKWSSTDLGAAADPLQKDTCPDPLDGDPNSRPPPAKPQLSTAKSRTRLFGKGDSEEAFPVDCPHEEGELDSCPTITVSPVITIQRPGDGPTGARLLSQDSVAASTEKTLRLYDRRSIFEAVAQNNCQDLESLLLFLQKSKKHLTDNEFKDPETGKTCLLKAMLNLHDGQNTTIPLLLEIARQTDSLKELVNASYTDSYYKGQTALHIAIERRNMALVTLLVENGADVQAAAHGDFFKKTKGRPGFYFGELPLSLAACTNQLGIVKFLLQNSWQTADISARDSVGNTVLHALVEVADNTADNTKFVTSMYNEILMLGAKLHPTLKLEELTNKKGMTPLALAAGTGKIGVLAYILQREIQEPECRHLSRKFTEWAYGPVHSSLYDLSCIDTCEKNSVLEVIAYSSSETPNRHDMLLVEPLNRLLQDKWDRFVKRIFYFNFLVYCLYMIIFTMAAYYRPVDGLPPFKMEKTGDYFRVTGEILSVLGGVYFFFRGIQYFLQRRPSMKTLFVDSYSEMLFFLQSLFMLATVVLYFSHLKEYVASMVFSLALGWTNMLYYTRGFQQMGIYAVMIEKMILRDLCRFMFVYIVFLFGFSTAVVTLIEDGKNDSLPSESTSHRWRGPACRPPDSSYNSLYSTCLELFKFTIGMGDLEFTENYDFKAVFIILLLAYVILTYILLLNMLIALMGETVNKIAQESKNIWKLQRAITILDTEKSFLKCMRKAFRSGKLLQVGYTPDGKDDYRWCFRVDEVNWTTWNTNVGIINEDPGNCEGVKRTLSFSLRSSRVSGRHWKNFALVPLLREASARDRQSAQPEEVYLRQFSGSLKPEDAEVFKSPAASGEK
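Fluo-8 calcium influx in TRPV1-expressing cells, kinetic read (ex 480/em 520 nm). Compound added and read 3 min for agonist activity, followed by capsaicin at EC20 final and 2 min further read for enhancement.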
gsp ag = agonists of gsp mutant (McCune-Albright syndrome). Potency, µM (top dose mostly 76.9 µM), for inactives: at the highest dose activation (cAMP increase), most hits filed as activators. gsp mutant cells, cAMP HTRF, 30 min; control for the full effect not named in the record. actives 0.13% (n = 340,000); active = well fitted activation curve with a large enough effect; inconclusive = small, poorly fitted or top-dose-only effect, or another doubt; inactive = no such curve, though single readings can be large or run the other way; cell line not stated here;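 further: phosphodiesterase inhibitor Ro 20-1724 added with compounds to block cAMP breakdown; potency means the concentration at half of the fitted maximal effect; nearly all actives have a fitted effect of over 60% in size; about a fifth of the inactives were tested at one dose only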
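Cells in DMEM/10% FBS with G418 were pretreated with compounds in DMSO plus […] (300 uM stock) for 30 min at 37C. cAMP was measured by HTRF (cAMP-d2 plus anti-cAMP antibody-K) after 30 min at room temperature.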
CtBP-E1A blk = CtBP/E1A binding inhibition. actives 0.49% (n = 340,000). AlphaScreen GST-E1A/His-CtBP binding, 1536-well; active compounds read low; control for the full effect not named in the record. activity change, % (test concentration not listed); in the data active means activity change below about -65%; inconclusive means about -30% to -65%; inactive means above about -30%; further: on the % scale 0 is the no-effect control and ±100 the full control effect
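Steps: dispense buffer (Tris pH 8.0, NaCl 300 mM, TCEP 1 mM, BSA, Tween 20); add 5X protein mix (GST-E1A, His-CtBP, 125 nM each); pin 23 nL compound; 2 h at 37 °C, dark; add 5X beads (50 ug/mL); 1 h; read.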
Sfp inh = blocks B. subtilis Sfp PPTase activity | Q9F4F7 | Biochemical Sfp PPTase activity, qHTS | Potency, µM, for inactives: max response, negative = inhibition, hits mostly inhibitors | actives 3.5% (n = 310,000) | AID 1490; active means well fitted inhibition curve with a large enough effect; inconclusive means small, poorly fitted or top-dose-only effect, or another doubt; inactive means no such curve, though single readings can be large or run the other way;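 further: the enzyme is Sfp with the accession as filed and its product quenches rhodamine fluorescence; potency means the concentration at half of the fitted maximal effect; 0% = enzyme reaction without inhibitor and -100% = no enzyme wells; top concentration of the series not given in the record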
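Compounds were incubated with enzyme (final 15 nM) for 15 min at room temperature before substrate addition started the reaction. Fluorescence at 525 nm excitation, 598 nm emission was recorded immediately and after 30 minutes.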
Starred values were filed as active, the others as inactive; ? = inconclusive; nt = not tested or not shown; & = joins results of further samples; [ ] = another dose, or the depositor's remark. This is a random part of the collection (roughly 5.3% active in at least one column).

Molecule | Menin MLL FP FL | gsp antag | ClpP mod | TRPV1 potentiator | gsp ag | CtBP-E1A blk | Sfp inh
COc1ccc(NC(=O)N2CCCC2C(=O)Nc2ccc(C)c(Cl)c2)cc1 (configuration not stated) | -1.3 | 7% | 0.0% | -14 | 0% | 4 | 6%
O=c1[nH]c(=O)n(C2CCCO2)cc1F (configuration not stated) | -2.3&-1.9&2.4 | 0% | 0.0% | -5 | nt | 8 | 28%&7%&5%
Nc1ccc2c(c1Br)Cc1ccccc1-2 | nt | 8% | -1.9% | nt | 1%[15.4 µM] | -3 | nt
CCOc1ccc(CC(=O)NNC(=O)/C=C/C(=O)O)cc1 | 1.8 | 3% | nt | -11 | 2%[15.4 µM] | -6 | ?
c1ccc2c(c1)OCC(c1csc3ncnc(N4CCCC4)c13)O2 (configuration not stated) | -0.8 | ? | 6.3% | -7 | 0% | -2 | -4%
COc1ccc(Cl)cc1NC(=O)CN(C)C(=O)c1cccc2cccnc12 | nt | 0% | -1.2% | nt | 4% | nt | nt
COc1cc(/C=C/C(=O)OCC(=O)NC2CCS(=O)(=O)C2)ccc1O (configuration not stated) | -1.6 | 4% | -16% | -2 | 2% | 4 | 0%
COc1ccccc1C(=O)NC(=O)COC(=O)Cc1ccccc1[N+](=O)[O-] | nt | -2% | -2.9% | 6 | -25% | -1 | nt
Cn1cc(Cl)c(C(=O)OCC(=O)Nc2nc(-c3ccc(Br)cc3)cs2)n1 | 0.9 | -9% | -0.3% | -3 | 1% | 2 | 2%
CC(=O)c1sc(NC(=O)c2ccc(COc3ccccc3Cl)o2)nc1C | 3.6 | ? | nt | 0 | 18% | -2 | -1%
COc1ccc(OCC(=O)O/N=C(\N)Cc2ccc(Cl)cc2Cl)cc1 | 3.3 | -6% | -6.2% | 12 | 10% | 67 | 7%
Cc1cc(C)c(C)c(S(=O)(=O)N2CCN(C(=O)CNC(=O)c3ccco3)CC2)c1C | nt | -4% | -1.4% | -6 | -35%[inhibitor] | 3 | nt
CC(C)(C)C(=O)N1CCn2c1nc1ccccc12 | -0.2 | -1% | nt | 1 | 21%[15.4 µM] | 0 | 9%
O=C(CCN1C(=O)c2ccccc2C1=O)Nc1cccc(S(=O)(=O)NC2=NCCC2)c1 | -3.0 | -1% | nt | 18 | 7%[15.4 µM] | 7 | 5%
CCc1ccc(C(C(=O)NCc2ccc(OC)cc2)N(CCOC)C(=O)Cc2cccs2)cc1 (configuration not stated) | 0.0 | -12% | 0.7% | 5 | -5% | -5 | 6%
Cc1ccccc1-c1cccc([C@@H]2C[C@H]3[C@H](CON3C)CN2Cc2ccccc2)c1 | nt | -20% | 0.4% | nt | nt | -18 | nt
O=C(Nc1c(C(=O)N2CCOCC2)cnn1-c1ccccc1)c1ccc([N+](=O)[O-])cc1 | 0.9 | 10% | 1.7% | -3 | 1%[15.4 µM] | -1 | 4%
O=C(COC(=O)c1nc(Cl)ccc1Cl)c1ccccc1Cl | nt | 8% | 1.1% | -12 | 0%[15.4 µM] | 7 | nt
CCOc1ccc(S(=O)(=O)N(C)c2ccc(OCC(=O)OCc3c(C)noc3C)cc2)cc1 | 8.6 | -26% | -0.5% | 27 | -4% | 7 | 9%
O=C(Nc1cccc(Cl)c1)c1ccc(NC2=NC3CS(=O)(=O)CC3S2)cc1 (configuration not stated) | 1.4 | 4% | 0.6% | -7 | ? | 2 | 2%
CC(=O)c1cccc(NC(=O)C(C)OC(=O)C2CCC2)c1 (configuration not stated) | nt | 13% | -1.5% | 6 | 5% | -8 | 13%
O=C(Nc1ccccc1Cl)N1C2CCC1CC(O)(c1cccnc1)C2 (configuration not stated) | -6.9 | 12% | 1.0% | -5 | 39% | 10 | 23%
CC(C)CN(C(=O)COC(=O)CCSc1ccc(F)cc1)c1c(N)n(Cc2ccccc2)c(=O)[nH]c1=O | nt | 4% | nt | -1 | 1%[15.4 µM] | 7 | nt
CCCCOC(=O)CSC1=C(C#N)C(c2ccc3c(c2)OCO3)CC(=O)N1 (configuration not stated) | 4.1 | -15% | 0.8% | -6 | 4% | -2 | -3%
Cc1cc2ccccc2c(=O)n1CC(=O)NCC(=O)N(C)Cc1ccccc1 | 6.7 | 1% | -19% | 6 | 22% | 17 | 10%
COc1ccccc1CNC(=O)Nc1cccs1 | ? | -6% | 1.5% | -7 | 15% | 2 | 4µM*
Cc1ccc2c(c1)Oc1ccc([N+](=O)[O-])cc1C(=O)N2 | -2.2 | 1% | nt | -7 | 12% | -1 | -7%
CCOc1ccccc1OCC(O)CNC (configuration not stated) | 2.0 | 9% | -1.6% | 21 | -12% | 4 | 0%
COCc1[nH]nc2c1C(c1ccccc1Cl)C(C#N)=C(N)O2 (configuration not stated) | 3.5 | -14% | 3.2% | -7 | 15% | 3 | -21%
CCOC(=O)C1=C(C)NC2=C(C(=O)CC(C)(C)C2)C1c1ccc(O)c(OCC)c1 (configuration not stated) | -2.9 | 1% | -4.4% | -12 | 7% | 9 | 13%
N#Cc1nc(-c2ccc(OCc3ccccc3)cc2)oc1NCc1ccco1 | 3.2 | 5% | 10µM* | 13 | 2% | -4 | ?
O=C(Cn1nc(C(=O)O)c2ccccc2c1=O)NC12CC3CC(CC(C3)C1)C2 | -3.5 | -2% | nt | -5 | 3%[15.4 µM] | 14 | 11%
COc1ccc2c(c1)C(C)=CC(C)(C)N2C(=O)CNCc1ccc2c(c1)OCO2 | 2.4 | 0% | 2.1% | 13 | 4% | -5 | -18%
CCn1nc(NS(=O)(=O)c2ccc([N+](=O)[O-])cc2)c2cc3cccc(C)c3nc21 | nt | -22% | 0.2% | 10 | ? | -26 | 5%
COc1cc(SC)ccc1C(=O)N1CCCc2ccccc21 | -4.6 | 2% | -1.1% | 13 | 2% | 11 | 7%
COc1ccccc1C(=O)Nc1nnc(S(=O)(=O)N(C)Cc2ccccc2)s1 | nt | 11% | 0.2% | 5 | 6% | 1 | 13%
CCOC(=O)/C(C#N)=C/c1ccc(OCC(=O)Nc2cc(C)ccc2C)c(OC)c1 | -0.2 | -4% | -1.9% | 6 | -1% | 1 | 4%
COC(=O)Cn1c(=NC(=O)c2cc(-c3cccs3)nc3ccccc23)sc2cc(S(N)(=O)=O)ccc21 | 9.5 | -10% | ? | 11 | -9% | -6 | 6%
COc1nc2c(c(-c3cc(Br)cs3)c1C#N)Cc1ccccc1-2 | 2.7 | ? | -40% | -3 | -20% | 11 | 14%
COc1ccc(C(=O)OCC(=O)N2CC(=O)Nc3ccccc32)cc1Br | nt | -8% | -4.9% | -4 | -30%[inhibitor] | -2 | nt
CN(C)CCOc1ccc2ccccc2c1 | 4.2 | 11% | 0.9% | -3 | -15% | 0 | -26%
CC(c1ccccc1)C1CC(=O)N(c2ccccc2)C1=O (configuration not stated) | -2.7 | 7% | -3.9% | ? | -4%[15.4 µM] | -3 | 4%
Cc1ccc(CCNC(=O)c2cc(C)nn2-c2ccccc2)cc1 | 2.6 | 6% | -1.4% | ? | 3% | 8 | 16%
CC(=O)Nc1nc2n(n1)C(c1ccc(Cl)cc1)C=C(C)N2 (configuration not stated) | 7.4 | 3% | 3.2µM* | 3 | 0% | -11 | 56µM*
O=C1C2CC=CCC2C(=O)N1Cc1ccccc1Cl (configuration not stated) | 4.5 | 9% | 1.2% | -8 | -4% | -2 | 8%
CC(=O)Nc1c(C)cc(S(C)(=O)=O)cc1C | 3.2 | 4% | -0.2% | -2 | 16%[15.4 µM] | 9 | 8%
CCOc1ccccc1-c1cc(-c2ccc(OC)cc2)nc2c1c(=O)n(C)c(=O)n2C | 6.7 | -1% | ? | 3 | 4% | 6 | -1%
CCCc1cc(=O)[nH]c(NCc2ccc(Cl)cc2)n1 | 1.6 | -8% | -2.6% | 4 | -15% | -3 | 11%
CC(=O)Nc1ccc(NC(=O)C/C(C)=N/NC(N)=S)cc1 | 0.0 | 15% | 1.2% | 3 | -19% | 10 | 56µM*
O=C(CN1CCN(c2ccc(O)cc2)CC1)Nc1ccc(S(=O)(=O)N2CCCC2)cc1 | nt | 5% | nt | nt | 16% | -7 | nt
O=C(NN1CCOCC1)c1cc(-c2cccs2)nc2ccccc12 | 1.2 | 6% | 10µM* | 7 | -43%[inhibitor] | -6 | 2%
CCOc1ccc(OCc2ccc(C(=O)OCc3ccccn3)o2)cc1 | 2.6 | -22% | -0.9% | 1 | -21% | 4 | -19%
COC(=O)c1nc(NC(=O)c2ccccc2)n[nH]1 | 6.2 | -7% | 0.2% | -8 | 10% | 7 | -4%
Cc1ccc(CNC(=O)c2cccnc2Sc2cccc(Cl)c2)cc1 | 1.7 | -11% | 0.2% | nt | 5%[15.4 µM] | 4 | -6%
Cc1ccccc1Sc1ccc([N+](=O)[O-])cn1 | nt | -8% | 0.6% | nt | -1% | nt | nt
CC(C)c1ccc(/C=C/C(=O)Nc2nc3ccc([N+](=O)[O-])cc3s2)cc1 | -4.4 | 9% | -1.1% | 1 | ? | 0 | -1%
